CtBP-E1A blk – blocks the CtBP interaction with E1A; AlphaScreen GST-E1A/His-CtBP binding, 1536-well; active compounds read low; control for the full effect not named in the record; activity change, % (no concentration beside the values); hit rate 0.49% among 340,000; in the data active means activity change below about -65%; inconclusive means about -30% to -65%; inactive means above about -30%; further: on the % scale 0 is the no-effect control and ±100 the full control effect
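Homogeneous bead-based format: GST-tagged E1A captured on glutathione donor beads, His-tagged CtBP on nickel acceptor beads; compounds precede bead addition by 2 h at 37 °C.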
Six1-Eya2 blk – Six1/Eya2 interaction inhibition; hit rate 0.56% among 360,000; AlphaScreen GST-Six1/His-Eya2 binding, biochemical; active compounds read low; control for the full effect not named in the record; activity change, % (no concentration beside the values); in the data active = activity change below about -65%; inconclusive = about -30% to -65%; inactive = above about -30%; further: on the % scale 0 is the no-effect control and ±100 the full control effect
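AlphaScreen luminescence read after one hour at 37 °C in darkness. Pin-transferred compounds met GST-Six1 and His-Eya2 protein (5X stock 250 nM/500 nM) plus glutathione donor and Ni-chelate acceptor beads (5X, 50 ug/mL).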
TRPML1 ag – activates the human TRPML1 channel | Q9GZU1 | TRPML1-expressing cells, Ca2+ dye fluorescence, FDSS; host cell line not named in the record; reference of the full effect not given here | activation, % (no concentration beside the values) | hit rate 0.12% among 410,000; in the data active = activation above about 50%; inconclusive = about 30% to 50%; inactive = below about 30%; further: 0% is about no effect; the text of the record puts the active cut at 80%
Target sequence (Q9GZU1 whole entry, looked up): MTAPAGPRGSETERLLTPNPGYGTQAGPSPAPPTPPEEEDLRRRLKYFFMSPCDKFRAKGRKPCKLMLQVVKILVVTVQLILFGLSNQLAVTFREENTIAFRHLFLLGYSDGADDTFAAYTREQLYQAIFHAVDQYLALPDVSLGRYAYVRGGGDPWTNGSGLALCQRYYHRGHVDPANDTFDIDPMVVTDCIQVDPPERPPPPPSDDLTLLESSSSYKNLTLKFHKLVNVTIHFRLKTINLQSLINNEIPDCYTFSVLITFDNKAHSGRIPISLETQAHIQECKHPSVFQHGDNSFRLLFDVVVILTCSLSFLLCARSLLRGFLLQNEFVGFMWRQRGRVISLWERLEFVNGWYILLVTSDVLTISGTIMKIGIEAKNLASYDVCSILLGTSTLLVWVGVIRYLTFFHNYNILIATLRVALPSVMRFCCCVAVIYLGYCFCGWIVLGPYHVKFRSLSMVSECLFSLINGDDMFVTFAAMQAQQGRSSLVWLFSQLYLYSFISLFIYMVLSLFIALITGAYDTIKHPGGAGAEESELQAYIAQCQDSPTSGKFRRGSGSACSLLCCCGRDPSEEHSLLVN
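Cells: TRPML1-DL, 1X Tet inducer, ~16 h at 37 degrees C/5% CO2. Dye: ABD Ca8 no-wash + quencher, 45-90 min RT. Read: 10 s baseline, compound add, 110 s agonist phase; 54-4 EC80 (4uM final), 110 s antagonist phase.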
D2 potentiator – potentiates the human D2 dopamine receptor allosterically. P14416. DiscoveRx D2 beta-arrestin cells, luminescence, 90 min; 100% = 57 uM dopamine signal. potentiation, % (concentration not given with the values). hit rate 0.23% among 360,000. AID 624464; active = potentiation of 50% or more; inconclusive = 30% to 50%; inactive = 30% or less;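 further: compound concentration not given in the record; tested on top of an EC20 dose of dopamine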
Target sequence (P14416 whole entry, looked up): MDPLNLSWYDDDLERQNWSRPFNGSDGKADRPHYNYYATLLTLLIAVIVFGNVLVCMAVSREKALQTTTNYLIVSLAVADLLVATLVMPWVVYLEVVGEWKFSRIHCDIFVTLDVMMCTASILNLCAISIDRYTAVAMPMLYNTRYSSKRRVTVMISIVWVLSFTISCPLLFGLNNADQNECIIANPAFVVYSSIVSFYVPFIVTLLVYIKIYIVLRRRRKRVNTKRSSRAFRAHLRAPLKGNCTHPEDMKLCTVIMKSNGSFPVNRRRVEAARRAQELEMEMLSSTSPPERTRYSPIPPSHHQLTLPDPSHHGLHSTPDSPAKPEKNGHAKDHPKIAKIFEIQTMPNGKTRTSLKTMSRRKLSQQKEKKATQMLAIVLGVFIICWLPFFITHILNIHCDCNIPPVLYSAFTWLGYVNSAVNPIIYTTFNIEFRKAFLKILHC
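PathHunter D2 cells, attached overnight at 37 deg C, received compound in DMSO plus dopamine at EC20 (50 nM final) for 90 min at 37 deg C. Beta-arrestin recruitment was read as luminescence after 1 h with detection reagent at ambient temperature.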
PINK1 modulator – modulators of PINK1 expression. PINK1 immunofluorescence, high-content cytometry, 24 h. hit rate 0.2% among 410,000. Potency, µM (top dose mostly 76.6 µM), without a hit: top-dose activation (PINK1 increase), most hits filed as activators. AID 624263; active = well fitted activation curve with a large enough effect; inconclusive = small, poorly fitted or top-dose-only effect; inactive = flat fitted curve, though single readings scatter; cell line not stated here;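 further: potency means the concentration at half of the fitted maximal effect; % of control where 0% means no effect; nearly all actives have a fitted effect of over 65% in size; a mitochondrial uncoupler was the plate control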
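PINK1 protein level read as immunofluorescence by microplate cytometer in a fixed, stained stable cell line after 24 h exposure to five compound concentrations, with CCCP as control.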
D2 ag – activates the human D2 dopamine receptor | AID 624465 | hit rate 0.084% among 360,000 | DiscoveRx PathHunter D2 beta-arrestin, luminescence, 90 min; 100% = 57 uM dopamine signal | P14416 | activation, % (concentration not given with the values); in the data active = activation above about 40%; inconclusive = about 15% to 40%; inactive = below about 15%; further: compound concentration not given in the record; the text of the record calls up to 30% inactive
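Agonist mode: compounds alone added to overnight-plated D2 PathHunter cells for 90 min at 37 C, with 57 uM final dopamine (EC100) defining full response. Beta-arrestin recruitment detected by chemiluminescent reagent, read after 1 h at ambient temperature.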
Active calls of the source: *; ? = inconclusive; . = no result given; & = joins results of further samples; [ ] = another dose, or the depositor's remark.

SMILES	CtBP-E1A blk	Six1-Eya2 blk	TRPML1 ag	D2 potentiator	PINK1 modulator	D2 ag
C=C1C(=O)O[C@H]2C1CC[C@@](C)(O)C13C=CC(C)(C21)C1(C3)C(=O)O[C@@H]2C3C(C)=CCC3[C@](C)(O)C[C@H](OC(C)=O)C21 (some centres not stated)	.	0	1.6	-2	18%	-4.5
CCOC(=O)N1CCN(C(=S)Nc2ccc(C)cc2)CC1	3	7	-0.2	1	-0.6%	0.2
Cn1c(=O)c2c(nc(SCC(=O)NC34CC5CC(CC(C5)C3)C4)n2C)n(C)c1=O	7	2	0.5	-8	9.8%[38.3 µM]	-1.9
c1ccc(Nc2c3c(nc4ccccc24)CCC3)cc1	-1	-2	3.0	-15	0.2%	-0.6
Cc1c(O)c2c3c(cccc3c1O)C(=O)N(c1ccccc1)C2=O	3	4	24	6	14%	-8.1
O=C(NC1=C(NC2CCS(=O)(=O)C2)C(=O)c2ccccc2C1=O)c1ccccc1 (configuration not stated)	8	1	0.3	2	1.2%	5.4
O=C(Cn1nnc(-c2ccccc2F)n1)Nc1ccc(C(=O)N2CCOCC2)cc1	-1	-7	-0.5	-7	3.5%	-2.3
C/C(=N\Nc1ccc([N+](=O)[O-])cc1)c1ccc(N)cc1	6	-5	1.2	19	?	5.0
COc1cc(C)c(Br)cc1S(=O)(=O)NCCN1CCOCC1	4	1	-0.6	-12	-0.7%	3.0
COc1ccc(Cl)cc1NC(=O)CCc1nnc2ccc(N3CCN(C)CC3)nn12	-3	7	0.2	-10	-1.2%	-0.7
Cc1[nH]n(-c2nc(-c3ccccc3)cc(=O)[nH]2)c(=O)c1CCO	-3	-25	-0.7	-8	-1.7%	-3.1
CCCCC1(Cc2ccc(OC)c([N+](=O)[O-])c2)C(=O)N(c2ccccc2)N(c2ccccc2)C1=O	4	-8	0.3	-8	3.0%	-1.9
CCOc1ccc(-c2noc(CCC(=O)NC)n2)cc1OCC	5	3	-0.5	-5	1.1%	0.8
CCCCNC(=O)OCCNC(=O)NC	-1	-4	-1.1	-5	-1.8%	-3.5
Cc1cccc(C(=O)OCC(=O)NCCN2C(=O)CSC2=O)c1[N+](=O)[O-]	13	6	-0.8	-4	1.0%	-4.3
CC1CCN(c2ccc3nnc(CCC(=O)N4CCN(c5ccccc5F)CC4)n3n2)CC1	.	0	1.7	-3	0.0%	2.2
CCCn1nnnc1-c1cc(Cl)cc(Cl)c1	7	1	0.3	-11	?	0.3
CC(C)Cc1nnc(NC(=O)CN2C(=O)NC3(CCCC3)C2=O)s1	5	2	-0.3	-16	0.1%	-5.5
N#C/C(=C(\O)Cc1ccccc1)c1nc2ccccc2[nH]1	1	-7	-0.1	-3	1.9%	-2.8
O=C(COC(=O)c1ccc(Cl)nc1)c1ccc2c(c1)OCCO2	2	16	1.0	-7	-1.0%	-0.2
CCc1ccc[n+](-c2[nH]c(=O)sc2/C=N/N=C(\[O-])c2ccncc2)c1	-15	-18	-0.2	-6	-0.7%	-0.6
N#Cc1ccc(C(=O)Nc2ccn(-c3ccccc3)n2)cc1	5	-3	-0.7	-6	-0.9%	1.3
CCN(CC)S(=O)(=O)c1ccc(NCc2ccccc2)nc1	6	3	0.5	-7	-0.2%[38.3 µM]	-2.4
O=C(NCCN1CCOCC1)c1cc(-c2ccc(F)cc2)on1	7	2	0.6	-15	-0.5%[38.3 µM]	0.5
COCC(C)n1c(-c2ccc3c(c2)NC(=O)CO3)csc1=Nc1ccc(OC(F)F)cc1 (configuration not stated)	?	?	-0.1&1.3	-11&14	6.1%&16%	0.6&-0.2

Record cards, from the list above. Values in the order: CtBP-E1A blk	Six1-Eya2 blk	TRPML1 ag	D2 potentiator	PINK1 modulator	D2 ag
CCCn1nnnc1-c1cc(Cl)cc(Cl)c1 across the screens: 7	1	0.3	-11	?	0.3
Cn1c(=O)c2c(nc(SCC(=O)NC34CC5CC(CC(C5)C3)C4)n2C)n(C)c1=O across the screens: 7	2	0.5	-8	9.8%[38.3 µM]	-1.9
C=C1C(=O)O[C@H]2C1CC[C@@](C)(O)C13C=CC(C)(C21)C1(C3)C(=O)O[C@@H]2C3C(C)=CCC3[C@](C)(O)C[C@H](OC(C)=O)C21 (some centres not stated) across the screens: .	0	1.6	-2	18%	-4.5
Cc1c(O)c2c3c(cccc3c1O)C(=O)N(c1ccccc1)C2=O across the screens: 3	4	24	6	14%	-8.1
c1ccc(Nc2c3c(nc4ccccc24)CCC3)cc1 across the screens: -1	-2	3.0	-15	0.2%	-0.6

(next part)
SMILES	CtBP-E1A blk	Six1-Eya2 blk	TRPML1 ag	D2 potentiator	PINK1 modulator	D2 ag
Cn1c(=O)[nH]c2c(c1=O)CCO2	4	7	1.1	-9	-0.7%	-0.1
C=CCN1C(=O)C(CC(=O)O)SC1=Nc1ccc(C)cc1 (configuration not stated)	6	3	-0.5	-1	0.6%	-3.6
COc1ccc(CNC(=O)COC(=O)[C@H](Cc2c[nH]c3ccccc23)NC(=O)c2cccs2)cc1	3	-22	6.4	15	-5.1%	-2.4
CC1(C(=O)NS(=O)(=O)c2ccccc2C(F)(F)F)CCN1C(=O)C1CCCCC1 (configuration not stated)	2	3	0.6	-4	0.6%	-7.0
COc1cccc(C(O)c2cnc(C(C)C)n2C)c1OC (configuration not stated)	7	1	0.4	12	3.2%[38.3 µM]	-0.8
CSc1nc(-c2ccc(Cl)cc2)nn1C(=O)c1ccco1	7	6	1.9	-9	0.5%	1.7
O=C(Nc1cccc(C(F)(F)F)c1)c1cncs1	2	21	-0.4	-16	-0.3%	-3.1
CCN(CC(=O)Nc1c(F)cccc1F)C(=O)c1ccc(C2SCCS2)cc1	6	-1	0.1	-4	2.7%	-2.5
CCCSc1nsc(SCCC)c1C(N)=O	0	14	0.8	-10	-1.2%	0.1
O=C(Nc1cccc(Cl)c1)c1ccc(F)c(S(=O)(=O)NCc2cccs2)c1	-16	-11	0.6	-3	?	1.2
COCCn1nnnc1C(c1ccc(OC)c(OC)c1)N1CCN(C(=O)c2ccco2)CC1 (configuration not stated)	0	2	0.8	-3	1.3%	-1.8
Cc1cc(Cl)c2oc(C(=O)N(C)Cc3nccn3C)c(C)c2c1	-10	-9	-1.1	-46	-0.3%	-2.1
COc1ccccc1NS(=O)(=O)c1cccc(C(=O)N/N=C(\C)c2ccc(-n3ccnc3)cc2)c1	-1	-1	-0.9	0	-0.5%	1.4
O=C(CCCCn1c(=O)c2ccccc2n(CC(=O)NC2CCCC2)c1=O)NCc1ccco1	-3	-2	2.3	-8	0.3%	-5.0
Cc1ccc(C)c(N2CCN(S(=O)(=O)c3c(C)[nH]c(C)c3C(=O)N3CCCC3)CC2)c1	-1	-2	-0.6	-1	1.3%	-0.8
COc1ccc(OC)c(NS(=O)(=O)c2c(C)nc3sccn3c2=O)c1	5	0	-0.8	-5	1.7%	14
CC1CCCN(CC(O)COC(c2ccccc2)c2ccccc2)C1 (configuration not stated)	2	4	0.9	-10	3.0%	-1.0
CCOC(=O)/C(=C\c1c[nH]c2ccccc12)NC(C)=O	1	-6	-0.1	-7	0.3%	-0.3
C[C@H]1CN([C@@H](C)CO)C(=O)Cc2cc(NC(=O)Cc3cn(C)c4ccccc34)ccc2O[C@@H]1CN(C)S(=O)(=O)c1cn(C)cn1	2	-1	-0.4	2	1.7%	-6.1
C/C(=N\OCC(=O)NCC(F)(F)F)c1cc2ccccc2o1	-1	-2	-0.1	-22	7.9%	-2.5
CC1C(=O)N2CCCc3cc(NC(=O)C4CC4)cc1c32 (configuration not stated)	-4	-13	0.6	-8	-0.5%	4.2
N#CC(c1ccccc1)c1cnccn1 (configuration not stated)	0	5	-0.9	-29	1.5%	-1.7
C/C(=N\Nc1nc2ccccc2[nH]1)c1ccc2c(c1)OCO2	?	?	4.0	-13	-2.8%	-0.5
Cc1ccc(NC(=O)CCC(=O)N/N=C/c2ccc(O)cc2)cc1	-29	-11	1.3	-21	1.4%	-4.2
Cc1cc(C)nc(NC(=O)c2ccc(COc3ccccc3Cl)cc2)c1	7	14	0.6	-14	3.6%	-2.8
(continued)
SMILES	CtBP-E1A blk	Six1-Eya2 blk	TRPML1 ag	D2 potentiator	PINK1 modulator	D2 ag
O=C(CCc1nnc2n(Cc3ccccc3)c(=O)c3ccccc3n12)NCCN1CCOCC1	-11	24	0.7	-3	1.1%	-4.9
COc1ccc(-c2coc3c(C)c4oc(=O)c(CCC(=O)O)c(C)c4cc23)cc1	-72*	-77*	-0.2	2	0.3%	2.0
C/C(=N\NC(=O)CNc1cccc(C(F)(F)F)c1)c1cccc(Br)c1	1	0	2.8	-1	9.2%	-0.6
N#CC1=C(N)Oc2n[nH]c(-c3cccs3)c2C1C1C=CCCC1 (configuration not stated)	-3	2	1.7	-1	0.2%	2.7
CCOC(=O)C1(Cc2ccc(Cl)cc2)CCN(C(=O)c2cnc(C)cn2)CC1	-5	9	1.1	-13	0.5%	-0.4
Cc1cccc(-c2nnc(-c3cccc4ccccc34)o2)c1	29	25	4.5	-1	0.6%	-1.1
CC(=O)c1cccc(NC(=O)c2cc(C)nn2-c2ccccc2)c1	-14	-2	-1.6	-6	0.3%	-1.9
Cn1c(SCC(=O)Nc2nncs2)nnc1C1CC1	-9	-17	0.4	-37	-0.1%	-4.6
CCC(C)(C(=O)NC1CCCC1)N(C(=O)CC1NC(=O)NC1=O)c1ccc(C)cc1 (configuration not stated)	5	2	-0.7	29	-2.4%	-1.4
Cc1ccc(-n2nnnc2SCC(=O)c2c(N)n(C3CC3)c(=O)[nH]c2=O)cc1C	.	3	-1.9	-7	12%	-2.2
CSCCC(NS(=O)(=O)c1ccc(Cl)cc1)C(=O)OCC(=O)c1c(C)[nH]c2ccccc12 (configuration not stated)	1	-2	1.3	8	?	7.2
Cn1c(C(=O)N2CCc3ccccc3C2)cc2oc3ccccc3c21	?	?	3.1	-22	0.0%	-2.2
CN(CC(=O)NCCc1ccccn1)S(=O)(=O)c1ccc(Cl)cc1	2	5	-0.2	-5	1.9%	-2.3
O=C(NC(CC(=O)N1CCCC(C(F)(F)F)C1)c1ccccc1)c1ccccc1Cl (configuration not stated)	6	11	0.0	-3	-0.2%	-4.4
Cc1ccc(NC(=O)COC(=O)C2CSC3(C)CCC(=O)N23)cc1S(=O)(=O)N1CCOCC1 (configuration not stated)	.	5	0.4	-12	3.0%	-5.9
CCCCCC(O)CCC(=O)NNC1=CC(=O)CC(C)(C)C1 (configuration not stated)	12	-11	0.1	0	0.9%	-1.7
Cc1ccc(N=C2CCCCCN2C)c(C#N)c1	-11	-1	0.6	0	-0.3%	0.3
C[C@@H]1CN([C@H](C)CO)C(=O)c2cc(NS(=O)(=O)c3cn(C)cn3)ccc2O[C@@H]1CN(C)S(C)(=O)=O	4	5	-0.3	-5	1.7%	-4.0
O=C(NCC(O)COc1ccc([N+](=O)[O-])cc1)c1ccccc1 (configuration not stated)	0	-7	-0.3	-4	-1.4%	-4.2
CNc1nc(NCc2ccccc2)c2sccc2n1	-1	-6	?	-5	4.9%	-5.4
COc1cc(OC)c(C(=O)OCCCOC(=O)c2cc(OC)c(OC)cc2OC)cc1OC	7	0	-0.2	-8	2.0%	-2.1
COc1cc(C(=O)OCC(=O)N2CCCC2)cc2c1OCCO2	.	7	-0.4	5	-0.9%	-2.0
N#C/C(=C\Nc1ccc2c(c1)OCCO2)C(=O)NCc1ccco1	-1	0	1.6	-6	-0.4%	1.6

Screening results: PubChem, National Center for Advancing Translational Sciences (NCATS)
